NPYLR7 ag: activates Aedes aegypti NPYLR7 receptor. HEK293T NPYLR7/Galpha15, GCaMP6s calcium fluorescence. activation, % at 10 µM. hit rate 0.15% among 270,000. AID 1259423; in the data active = activation above about 40%;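 also: 0% = vehicle and 100% = reference agonist at the receptor; some compounds past the cut are filed as inactive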
NPYLR7 ag max-min: recorded beside NPYLR7 ag, whose call it bears; activation, %; measured here: Max-Min RFU normalised activation; some inactives read as strong as hits;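 span of the calcium signal over five minutes; 0% = vehicle and 100% = native peptide agonist; compound fluorescence can raise it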
* marks the source's active call; other numbers are inactive results; & = joins results of further samples.

Start of the listing, in advance:
Every second line gives: NPYLR7 ag, NPYLR7 ag max-min
COc1cc(C(=O)N2CCN(c3nc4ccccc4nc3-c3ccccc3)CC2)cc(OC)c1OC
    17.8, 14.9
COc1cc(/C=C2/SC(=Nc3ccccc3)NC2=O)ccc1OC(=O)c1ccccc1
    -6.9, -13.4

The listing (from the top)
Every second line gives: NPYLR7 ag, NPYLR7 ag max-min
COc1cc(C(=O)N2CCN(c3nc4ccccc4nc3-c3ccccc3)CC2)cc(OC)c1OC
    17.8, 14.9
COc1cc(/C=C2/SC(=Nc3ccccc3)NC2=O)ccc1OC(=O)c1ccccc1
    -6.9, -13.4
COCC(=O)Nc1ccc(N2CCN(C(=O)[C@H](C)OC(C)=O)CC2)nc1
    10.2, 6.7
CCCCCC(=O)N1[C@@H](c2ccco2)[C@@H](C(=O)NC)C[C@]12CCCCNC2=O
    1.4, 9.3
O=C(NCCCCCCNC(=O)OC1CCS(=O)(=O)C1)OC1CCS(=O)(=O)C1 (stereo not drawn)
    2.3, 2.0
O=S(=O)(NCCOc1ccc(-c2ccccc2)nn1)c1ccc(Oc2ccccc2)cc1
    -1.3, -13.5
C=c1ccccc1=c1[nH]/c(=C\c2ccc(N(C)C)cc2)c(=O)o1
    1.4, -3.5
Cn1nnc2c(SCC(=O)NCc3ccccc3Cl)ncnc21
    0.7, 7.3
C=CCC(O)(CC=C)c1ccc(CN(CCC)Cc2cccc(OC)c2)o1
    14.5, 17.4
COc1ccccc1Oc1ncccc1CNC(=O)c1cccnc1OC
    10.1, -0.6
COc1c[nH]c(CN2CCCC(N(C)C)CC2)cc1=O (stereo not drawn)
    27.5, 16.1
CC(C)Cc1noc(C2CCCN(c3nc(CCN)nc4ccccc34)C2)n1 (stereo not drawn)
    6.2, 3.0
O=S(=O)(c1cc(Cl)ccc1Cl)N1c2cccc3cccc(c23)S1(=O)=O
    -4.8, -8.1
CC1(C)Cc2c(cnn2-c2cccc(F)c2)C(NC(=O)c2n[nH]c3c2CCC3)C1 (stereo not drawn)
    8.0, 6.4
O=C(NCC1CCCN(Cc2cn[nH]c2C2CCCCC2)C1)c1n[nH]c2ccccc12 (stereo not drawn)
    4.5, 2.8
CCCCc1nc(C(N)=O)c2[nH]c(=O)n(-c3cccc(OC)c3)c2n1
    10.4, 6.6
O=[N+]([O-])c1ccc(/C=N\Nc2nc(Nc3ccc(F)cc3)nc(N3CCOCC3)n2)cc1
    -19.5, -19.7
C=CCOC(=O)C1C(C)=Nc2nc(SCCC)[nH]c(=O)c2C1c1ccc(F)cc1 (stereo not drawn)
    4.3, 2.4
CCCc1nc2c3ccccc3n(CC(=O)Nc3ccccc3C)c(=O)n2n1
    3.7, -0.7
Cc1cc(C(=O)N2CCN(Cc3cccc(-c4noc(CC(C)C)n4)c3)CC2)no1
    9.8, 15.7
COc1ccc(C(=O)N2CCC3(CC2)OCC(C(=O)O)N3C(=O)c2cccc(C)c2)cc1 (stereo not drawn)
    14.8, 14.3
Cc1sc2nc3n(c(=O)c2c1C)CCC3
    5.2&1.2, 2.0&-0.3
COCCNC(=O)C(NC(=O)c1ccc(F)cc1)C1CCN(C(=O)c2cccc(F)c2)CC1 (stereo not drawn)
    0.1, 1.3
CCOC(=O)C1CCCN(c2cc(Oc3cc(C)ccc3F)ncn2)C1 (stereo not drawn)
    -8.4, -5.6
CCS(=O)(=O)c1ccc(C(=O)N(Cc2ccccn2)c2nc3c(C)cccc3s2)cc1
    -1.9, -5.6
CCc1nc2ccc(C(=O)NCCCN(C)C)cn2c1N(C)C(=O)C1CCCCC1
    -5.7, -11.3
Fc1cc(F)cc(-c2cncc(COc3ccc(F)cc3F)c2)c1
    -10.7, -10.7
COCCn1cc(C(=O)NCc2ccc(Cl)cc2)c2nn(-c3ccccc3)c(=O)c-2c1
    17.4, 14.7
CN1OC(C)(CC(=O)NC2CC2)N=C1c1ccc(N(C)C)cc1 (stereo not drawn)
    5.2, 0.6
CC(C)(C)n1c(NC(=O)c2cccc(N3NC(=O)C4CC=CCC4C3=O)c2)nc2ccccc21 (stereo not drawn)
    -5.6, -10.3
CC(C)(C)NC(=O)COc1ccc(CN2CC[C@H]3CC[C@@H](C2)N3)cc1
    1.3, -5.8
CN(C)S(=O)(=O)Nc1cccc(N2CCCCCC2)c1
    10.3, 4.4
COc1ccc(CNC(=O)C2CCCCC2C(=O)N2CCc3ccccc32)cc1 (stereo not drawn)
    16.4, 2.9
COCc1ccc(CN2CCN(CC3CCCCC3)C(CCO)C2)o1 (stereo not drawn)
    9.4, 4.0
CCCCn1c2c(c(=O)[nH]c1=O)C(c1ccc(C(C)C)cc1)C1C(=O)OCC1=N2 (stereo not drawn)
    20.5, 37.0
COc1ccccc1C1NC(=O)N(C)C2=C1C(=O)N(CCC(=O)Nc1ccccc1F)C2 (stereo not drawn)
    -2.3, -4.5
O=C(O)c1csc(CSc2nnc(-c3ccco3)n2-c2ccc(Cl)cc2Cl)n1
    7.8, 5.3
Cc1cnc(C(=O)NCC(C)N(C)c2ccccc2)cn1 (stereo not drawn)
    -3.3, -3.5
COC(=O)c1ccc(Cn2nc(C3CC3)c3cnn(-c4ccccc4)c3c2=O)o1
    -2.4, -2.2
CCOc1ccc(-c2cc(-c3nc(-c4ccccc4)no3)[nH]n2)cc1
    7.8, -1.9
CC(C)Cc1nc2cc(NS(=O)(=O)N(C)C)cc(C(=O)N3CCOc4ccccc4C3)c2n1C
    6.3, 4.5
Cc1cc(C)cc(-n2nnc3c(=O)n(CC(=O)NCc4ccc5c(c4)OCO5)cnc32)c1
    -2.9, -5.9
CNC(=O)CN1C(=O)CN(C(=O)c2ccc(C(F)(F)F)cc2)CCC(OC)c2ccccc21 (stereo not drawn)
    2.3, 0.2
COc1cccc(Cn2nc(C(=O)NC3CC3)c3c2CCN(C(=O)c2ccc(-n4cccn4)cc2)C3)c1
    21.9, 6.7
CC(Nc1ncccc1C#N)c1ccc(N2CCN(C)CC2)c(F)c1 (stereo not drawn)
    -0.6, -3.9
CCn1c(SCC(=O)Nc2nnc(C)s2)nc2c(c1=O)SC(C)C2 (stereo not drawn)
    -3.8, -5.8
CCOC(=O)c1c(NC(=O)c2cnn3c(C(F)(F)F)cc(-c4ccccc4)nc23)sc(C)c1C
    12.8, 5.4
O=C(C1CC1)N1CCN(c2ncnc3c2nnn3Cc2ccccc2)CC1
    -14.6, -23.6
CS(=O)(=O)c1cccc(C(=O)NC2CCCCC2C(F)(F)F)c1 (stereo not drawn)
    2.1, 0.2
NC(=S)N/N=c1\oc2cc(O)ccc2cc1-c1nc2ccccc2[nH]1
    66.7*, 59.1*
Cc1ccc(/C=C2\SC(=Nc3cc(C)cc(C)c3)NC2=O)cc1
    -8.0, -13.7
Cc1ccc(CC(=O)Nc2n[nH]c(C(F)(F)F)n2)cc1
    -3.8, -4.7
COc1cccc(C(=O)N2CCN(c3cc(Oc4ccc(C)cc4OC)ncn3)CC2C)c1 (stereo not drawn)
    -3.3, 3.9
Cc1c(Cl)ccc([N+](=O)[O-])c1C(C#N)C(=O)N(C)C (stereo not drawn)
    2.0, -1.5
COC(=O)C(Cc1ccccc1)NC(=O)C1CC=CCC1C(=O)N1CCN(c2ccccn2)CC1 (stereo not drawn)
    4.4, -0.8
O=C(COCc1ccccc1)Nc1ccc(N2CCC(Cc3ccccc3)CC2)c(C(=O)NCc2ccc(F)cc2)c1
    0.3, -6.9
Cc1onc(-c2ccccc2)c1C(=O)N1CCC(c2nc(-c3cccnc3)no2)CC1
    5.4, 7.0
CC(C(=O)Nc1sc2c(c1C(N)=O)CCC2)N1CCN(CC(=O)Nc2ccc(F)cc2)CC1 (stereo not drawn)
    4.4, 2.0
C=CCN1CC(C(=O)NC2CCC(n3cnnc3)CC2)CCC1=O (stereo not drawn)
    2.2, 0.8
Cc1cc(C)c[n+](C2=C(c3c(C)[nH]n(-c4ccccc4)c3=O)C(=O)N(C3CCCCC3)C2=O)c1
    0.0, 4.5

Rewritten with each value named: part of the list above
> CS(=O)(=O)c1cccc(C(=O)NC2CCCCC2C(F)(F)F)c1 (stereo not drawn)
  NPYLR7 ag: 2.1; NPYLR7 ag max-min: 0.2
> NC(=S)N/N=c1\oc2cc(O)ccc2cc1-c1nc2ccccc2[nH]1
  NPYLR7 ag: 66.7*; NPYLR7 ag max-min: 59.1*
> Cc1ccc(/C=C2\SC(=Nc3cc(C)cc(C)c3)NC2=O)cc1
  NPYLR7 ag: -8.0; NPYLR7 ag max-min: -13.7
> Cc1ccc(CC(=O)Nc2n[nH]c(C(F)(F)F)n2)cc1
  NPYLR7 ag: -3.8; NPYLR7 ag max-min: -4.7

Further results follow:
Every second line gives: NPYLR7 ag, NPYLR7 ag max-min
COc1ccc(C(=O)N2CC[C@@H](N3CCC(O)CC3)[C@H](O)C2)cc1C
    14.6, 9.3
Clc1ccc(OCCCc2nnc3n2CCCCC3)c(Cl)c1
    -2.1, -4.7
CCOC(=O)C1=C(Cc2ccc(F)cc2)C(=O)c2ccccc2C1=O
    10.2, 9.3
O=C(CCN1CCC(Cc2noc(C3CC3)n2)CC1)Nc1nccs1
    12.7, 7.2
CN(CC1Cc2ccccc2O1)C(=O)Nc1nc(-c2ccccc2)ns1 (stereo not drawn)
    7.4, -2.6
NC(=O)C1CCN(C(=O)c2cc3n(n2)C(C(F)(F)F)CC(c2ccco2)N3)CC1 (stereo not drawn)
    5.6, 0.3
O=C(Nc1ccc(N2CCCC2)c(C(=O)NCc2ccc(F)cc2)c1)Nc1ccc(Cl)cc1Cl
    10.3, 10.3
COc1ccc2nc(-c3ccc(F)c(NC(=O)C(C)(C)C)c3)cn2n1
    -8.9, -13.5
Cc1nn(CC(=O)c2ccc(Cl)cc2Cl)c(C)[n+]1N
    -9.5, -10.4
CCCCCCCC(=O)N1CCc2nc(-c3ccccc3)nc(N(C)C)c2C1
    -3.5, 1.5
O=C(N[C@H](Cc1ccccc1)C(=O)N1CCC(c2ccccc2)CC1)OCc1ccccc1
    -20.9, -27.3
COc1ccccc1-n1cc(CNC2CCSC2)cn1 (stereo not drawn)
    3.4, 2.4
COc1ccccc1-c1cnn2c(C)c(C(=O)NC(Cc3ccccc3)c3ccccc3)cnc12 (stereo not drawn)
    -8.0, 5.0
O=C1NC2(CCN(Cc3ccccn3)CC2)Nc2ccc(Br)cc21
    1.5, 5.0
N#CC(=Cc1ccccc1I)c1ccccn1
    -0.7, -5.2
COc1ccc(N2CCN(Cc3nc4c(c(=O)[nH]c(=O)n4C)n3CC(C)=O)CC2)cc1
    7.4, 10.1
CCCc1cc(NCC2CCCO2)n2nc3nc(C)cc(C)c3c2n1 (stereo not drawn)
    3.4, 3.8
CSCCC(=O)N1CCCC(CCC(=O)NCc2ccccc2Cl)C1 (stereo not drawn)
    -0.5, -3.4
Cc1ccc(NC(=O)N2CCN(C(C(=O)N3CCc4ccccc4C3)C3CCCC3)CC2)cc1 (stereo not drawn)
    -5.8, -5.0
Cc1ccn2c(=O)cc(CN(C)Cc3ccc(OC(F)F)cc3)nc2c1
    1.0, 0.9
Cc1ccc(N2CC(C(=O)Nc3cccc(-c4nnc5n4CCC5)c3)CC2=O)c(F)c1 (stereo not drawn)
    11.3, 7.0
Cc1ccc(Cc2nc(N3CCN(C(=O)c4ccccc4Br)CC3)c3c(C)nn(-c4ccc(F)cc4)c3n2)cc1
    -1.4, -0.9
Cc1ccccc1CN1C(=O)C2(SC(C)(C)CN2C(=O)C2CCCC2)c2ccccc21 (stereo not drawn)
    -3.7, -2.5
O=C(O)c1cc2c(c(S(=O)(=O)N3CCOc4ccccc43)c1)CCC2
    7.4, 2.4
O=C(NCc1ccncc1)N1CCSCC1c1ccc(Cl)cc1 (stereo not drawn)
    -3.1, -5.6
CC(C)SC(NC(=O)OCc1ccccc1)C(=O)N1CCC(O)(c2ccc(Cl)cc2)CC1 (stereo not drawn)
    -8.6, -12.6
O=C(COc1ccc(Cl)cc1)N=Nc1c(O)n(CCc2ccccc2)c2ccccc12
    -10.5, -11.6
O=c1c2ccccc2nc(-c2ccc(F)cc2C(F)(F)F)n1Cc1ccccc1
    3.7, 1.1
COCCn1c(Sc2nc3ccccc3[nH]2)nc2c1c(=O)[nH]c(=O)n2C
    2.1&5.1, 0.5&4.3
Cc1cc(CC(=O)NC(C)c2nc(CC(C)C)no2)on1 (stereo not drawn)
    0.5, 0.1
O=C(C=Cc1ccccc1)NCCC(=O)N1CCCC1
    13.5, 17.3
CN1CCN(n2c3c(c(SCC(=O)Nc4nc5ccccc5s4)nc2=O)CCCC3)CC1
    -3.5, -11.1
c1coc(CN2CCN(c3cnc4ccccc4n3)CC2)c1
    4.5, 3.1
Cc1[nH]c2ccc(C(=O)N3CCC(CN(C)C(C)C)CC3)cc2c1C
    -24.9, -23.0
Cn1c(=O)c2c(ncn2CC(=O)Nc2ccnn2Cc2cccs2)n(C)c1=O
    9.6, 8.8
COc1ccc(-c2noc(-c3c(SC)nn(CC(=O)Nc4ccc(C)cc4Cl)c3N)n2)cc1
    3.0, -4.6
COc1cccc(CNC(=O)Cn2cnc3c([nH]c4ccc(C)cc43)c2=O)c1
    6.1, 4.3
Cc1ccc(-c2nc(Nc3ccccc3)c3ccccc3n2)cc1
    1.0, 15.7
Cc1nc(CN2CCN(C(=O)c3oc4c(C)c(C)ccc4c3C)CC2)cs1
    10.8, 4.3
CC(C)N(C(=O)COc1ccc(C(=O)N2CCCC2)cc1)C(C)C
    5.3, 4.1
CCOC(=O)C(C)N(C)C(=O)c1ccn(C(C)C)n1 (stereo not drawn)
    -2.3, -3.1
Cc1ccc(NC(=O)CC(=O)N2CCCC(c3nc(CC(C)C)no3)C2)cc1 (stereo not drawn)
    2.5, 2.6
O=c1c2ccc(-c3ccc(Cl)cc3)nc2[nH]n1-c1ccccc1
    -2.2, -2.1
Cc1ccc(-n2c(SCC#N)nc3sc(C)c(C)c3c2=O)c(C)c1
    -2.2, -1.8

Screening data: PubChem, Fisher Drug Discovery Resource Center

Not all compounds are listed (hit frequency here may not be typical).
